Screening results: PubChem, several laboratories
RGS16-Gao: modulates binding between human RGS16 and Galphao; O15492+P09471; bead-based flow cytometry RGS16-Galphao binding, fluorescence; actives lie on both sides; binding response (% of control), % at 10 µM; actives 0.38% (n = 220,000);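 active means below 25% or above 175%, edge rows of some plates excepted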;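 further: Galphao activated by GDP with aluminum fluoride before binding; 100% = wells without compound and 0% = beads without RGS; some results beyond the cut were filed as inactive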
Insulin prom inh: TRM-6 insulin promoter activity inhibition. TRM-6 cells (human fetal islet line), insulin promoter-eGFP reporter, imaging; reporter expression induced with tamoxifen. inhibition, % at 2 µM. actives 0.9% (n = 130,000). AID 1273;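 active means inhibition above the mean plus 3 SD, with well images judged a real hit on visual review, cut at about 60% in these data, passing the limit was not always enough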
GALR2 agonist: GALR2 (human) receptor agonism; O43603; GALR2-expressing cells, agonist activation read-out; activation, %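 (tested at 5 µM)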; actives 0.48% (n = 140,000); AID 803;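 active means above mean plus 3 SD of all compounds, about 5% in these data, not always enough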;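 further: 0% = vehicle buffer wells and 100% = reference agonist at full effect; tested in CHO reporter cells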
HSV augment: increases HSV replication in cells; HSV replication augmentation in cells, fold increase; maximum fold increase; actives 0.005% (n = 220,000); AID 1956;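 active means peak rise of 1.5-fold or more in the series; tested in PC3 cells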;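 further: first round at 10 µM; read as green reporter fluorescence; hits show the peak of a series up to 25 µM; 1 = signal of infected wells without compound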
PKD1 kinase inh: PKD1 (human) kinase inhibition. Q15139. actives 0.056% (n = 200,000). PKD1 kinase fluorescence polarization assay. inhibition, %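 (about 10 µM by stock and volumes)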;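 active means inhibition of 50% or more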;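 further: controls were vehicle for no effect and a reference inhibitor for full effect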
Target sequence (Q15139 whole entry, looked up): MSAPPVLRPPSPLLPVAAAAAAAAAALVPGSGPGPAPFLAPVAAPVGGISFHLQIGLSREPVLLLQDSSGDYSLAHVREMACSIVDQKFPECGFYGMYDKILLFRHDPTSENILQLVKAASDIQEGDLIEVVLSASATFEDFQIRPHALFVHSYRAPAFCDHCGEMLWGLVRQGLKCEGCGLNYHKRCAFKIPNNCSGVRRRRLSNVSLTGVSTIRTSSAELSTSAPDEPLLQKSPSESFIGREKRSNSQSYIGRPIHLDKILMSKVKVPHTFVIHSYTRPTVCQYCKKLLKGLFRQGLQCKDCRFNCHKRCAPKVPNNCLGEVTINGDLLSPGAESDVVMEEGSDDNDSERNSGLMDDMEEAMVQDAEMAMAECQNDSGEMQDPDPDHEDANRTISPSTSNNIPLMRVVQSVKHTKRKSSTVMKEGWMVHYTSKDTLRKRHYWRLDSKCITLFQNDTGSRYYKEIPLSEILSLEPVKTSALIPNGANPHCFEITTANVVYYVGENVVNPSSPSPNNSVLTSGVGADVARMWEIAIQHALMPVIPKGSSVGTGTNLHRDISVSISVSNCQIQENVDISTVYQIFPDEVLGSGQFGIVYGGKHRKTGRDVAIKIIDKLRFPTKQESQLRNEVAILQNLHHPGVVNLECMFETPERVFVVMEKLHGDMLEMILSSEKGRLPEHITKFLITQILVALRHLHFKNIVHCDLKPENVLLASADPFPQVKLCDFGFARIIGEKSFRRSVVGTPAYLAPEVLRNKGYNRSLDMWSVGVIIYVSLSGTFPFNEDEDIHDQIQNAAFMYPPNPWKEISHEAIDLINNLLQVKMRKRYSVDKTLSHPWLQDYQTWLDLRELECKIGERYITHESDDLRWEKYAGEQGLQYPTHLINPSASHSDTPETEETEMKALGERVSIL
Insulin prom inh cell count: further read-out of Insulin prom inh, marked with its call; normalized cell count, %; measured here: cell count, toxicity; reference of the scale not given here;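 cells exposed to compound for 48 h; stained nuclei by imaging scaled within each plate; lower means fewer cells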
HSV augment primary fold: second read-out of HSV augment, no call of its own (marks repeat the call); fold increase; compound at 10 µM; measured here: primary screen fold increase 10 uM; tested in PC3 cells;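 GFP signal in the first replicate; 1 = infected wells without compound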
* hit, by the source's call; i = inactive; nt = not tested or not shown.

Each structure is followed by: RGS16-Gao, Insulin prom inh, Insulin prom inh cell count, GALR2 agonist, HSV augment, HSV augment primary fold, PKD1 kinase inh
[1] Cc1oc2cc([N+](=O)[O-])c(O)c([N+](=O)[O-])c2c1C(=O)c1ccc(Cl)cc1
 : 92, nt, nt, nt, i, 1, nt
[2] COc1ccc(-n2c(=O)c3ccccc3n(CC(=O)NC3CCCC3)c2=O)cc1
 : 100, nt, nt, -1.5, i, 1.1, -6
[3] Cc1cc(=O)[nH]c(SCC(=O)Nc2ccc(F)c([N+](=O)[O-])c2)n1
 : 98, nt, nt, nt, i, 0.93, -7
[4] CC(=O)N1CCN(c2ccc(NC(=S)NC(=O)COc3ccc(C(C)(C)C)cc3)cc2)CC1
 : 94, -11, 81, -0.7, i, 0.93, -5
[5] Cc1ccnc(NC(=O)C(C)n2cc([N+](=O)[O-])cn2)c1 (configuration not stated)
 : 243, -19, 87, nt, i, 1, -2
[6] Cc1cc(C)c2ccc3c(C)c(C)n(C)c3c2n1
 : 103, 13, 139, nt, i, 0.87, 1
[7] COc1ccc(N=NC2=C(O)CC(C)(C)CC2=O)c(OC)c1
 : 106, -180, 100, -2.2, i, 1.1, -1
[8] Cc1ccc(/C=N/OC(=O)c2c(C)noc2-c2snnc2C)cc1
 : 105, nt, nt, nt, i, 1.3, nt
[9] O=c1c(-c2ccc3c(c2)OCCO3)c(C(F)(F)F)oc2cc(O)cc(O)c12
 : 102, -128, 136, -1.6, i, 0.71, -4
[10] O=C(CSc1nnc2scc(-c3ccccc3)n12)N1CCN(Cc2ccccc2)CC1
 : 100, 9, 122, -0.3, i, 0.89, -7
[11] Cc1cc(N2CCCC2=O)cc(C)c1S(=O)(=O)NCCOc1ccc(C(C)(C)C)cc1
 : 80, -172, 101, -2.4, i, 0.88, -4
[12] COc1ccccc1-c1cc(-c2ccccc2)nc(SC(C(N)=O)c2ccccc2)c1C#N (configuration not stated)
 : 133, nt, nt, -2.4, i, 0.85, -4
[13] CC(C)(CCO)NC(=S)NC1CC2C=CC1C2 (configuration not stated)
 : 105, nt, nt, nt, i, 1.2, nt
[14] Cc1ccccc1NC(=O)c1c(F)c(F)c(F)c(F)c1F
 : 113, -58, 147, -3.6, i, 1.1, -2
[15] O=C(CN1CCN(Cc2ccccc2)CC1)N/N=C/c1ccccc1F
 : 104, nt, nt, nt, i, 0.91, nt
[16] CCCCNC(=O)CSc1nc(COc2ccccc2)nc2ccccc12
 : 101, nt, nt, nt, i, 0.99, 4
[17] Nc1ccccc1Nc1ccccc1
 : 90, 4, 124, -4.6, i, 0.92, -3
[18] CN(C)C(=O)CSc1nnc(CCNC(=O)OC(C)(C)C)o1
 : 104, nt, nt, -0.6, i, 0.86, 2
[19] O=C(CNS(=O)(=O)/C=C/c1ccccc1)OC1CCOC1=O (configuration not stated)
 : 100, nt, nt, nt, i, 0.93, 0
[20] COc1cc(/C=N/NC(=O)CCn2nnc3ccccc32)ccc1O
 : 103, 18, 146, -1.4, i, 0.97, -2
[21] O=C(C1=C[C@@H](c2ccc(Br)cc2)C[C@@H](OCCCCO)O1)N1CCN(Cc2ccccc2)CC1
 : 104, nt, nt, nt, i, 0.9, -1
[22] COc1ccccc1-c1nnc(SCCN2CCOCC2)n1-c1ccc(C)cc1
 : 102, nt, nt, -1.4, i, 0.9, 3
[23] Cn1c(SCC(=O)Nc2ccc(Cl)cc2)nc(O)cc1=O
 : 90, nt, nt, nt, i, 1.1, nt
[24] CSc1nc2sc3c(c2c2nnnn12)CCCC3
 : 100, -62, 91, -0.3, i, 0.88, 15
[25] O=C(NC(=S)Nn1cnc2c(cnn2-c2ccccc2)c1=O)c1ccccc1
 : 100, -41, 175, -1.6, i, 0.95, 3
[26] CCOC(=O)c1sc(=NC(=O)c2ccccc2)n(C)c1C
 : 103, 17, 162, nt, i, 0.94, -8
[27] Cn1c(=O)c2c(nc(Sc3ccccc3N)n2C)n(C)c1=O
 : 100, nt, nt, nt, i, 1, nt
[28] C=CCn1c(C(C)(C)C)nc2ccccc21
 : 103, 47, 161, nt, i, 1, -2
[29] Cc1cccc(NC(=O)C2CCN(S(=O)(=O)c3cccc4nsnc34)CC2)c1
 : 99, nt, nt, nt, i, 0.89, -6
[30] O=C(O)C(F)(F)S(=O)(=O)O
 : 99, nt, nt, -1.8, i, 0.83, -11
[31] Cc1noc(C)c1COC(=O)c1cccnc1SCC(=O)Nc1ccc2c(c1)OCO2
 : 103, nt, nt, -1.0, i, 1, -7
[32] COc1ccc(NC(=O)c2oc3cc(C)c(C)cc3c2C)c(OC)c1
 : 97, 60, 121, -1.0, i, 0.86, 2
[33] CC(C)CCn1nnnc1C(c1ccc(F)cc1)N1CCN(C(=O)c2ccco2)CC1 (configuration not stated)
 : 97, 29, 61, -4.4, i, 0.98, -7
[34] CC(CCc1ccccc1)NC(=O)CSc1ccccc1 (configuration not stated)
 : 95, -11, 85, -1.2, i, 0.99, -9
[35] Cc1csc(SCC(=O)NC(C)c2ccc(F)cc2)n1 (configuration not stated)
 : 103, nt, nt, nt, i, 1.1, -7
[36] Nn1cc(-c2ccccc2)nc1SCC(=O)NCCc1ccccc1
 : 102, nt, nt, nt, i, 0.96, -10
[37] CCN1CCN(c2cc(C)c3cc(NC(=O)Cc4ccccc4OC)ccc3n2)CC1
 : 127, nt, nt, -1.8, i, 0.93, -2
[38] CC1CC(C)CN(C(=O)c2ccc(NC(=O)c3ccc(=O)[nH]c3)cc2)C1 (configuration not stated)
 : 62, -76, 72, -1.9, nt, nt, -6
[39] Fc1ccc2c(c1)C1C=CCC1C(c1cc3c(cc1Br)OCO3)N2 (configuration not stated)
 : 96, nt, nt, -1.6, i, 0.82, -8
[40] CCOC(=O)N1CCN(C(=O)C2CCN(S(=O)(=O)c3ccc(OC)cc3)CC2)CC1
 : 112, -8, 47, nt, i, 0.99, 2
[41] Cc1ccccc1NC(=O)c1ccccc1
 : 97, 38, 94, -2.1, i, 0.98, 1
[42] CCc1c(C)nc2ncnn2c1N1CCCC(C(=O)NCCc2ccccc2)C1 (configuration not stated)
 : 103, -4, 114, 1.9, i, 0.95, 4
[43] Cc1cc(C)cc(N(C(=O)c2csnn2)C(C(=O)NC(C)(C)C)c2cccs2)c1 (configuration not stated)
 : 101, -3, 99, -1.0, i, 0.94, -2
[44] O=C(CNc1cccc(C(F)(F)F)c1)N/N=C/c1cccc(Br)c1
 : 100, nt, nt, 1.5, i, 1, -1
[45] CC1CC(=O)Nc2ccccc2N1S(=O)(=O)c1ccc(Cl)cc1 (configuration not stated)
 : 113, nt, nt, nt, i, 1, nt
[46] Cc1nn(CC(=O)OCC(=O)NC(C)c2ccccc2)c(C)c1[N+](=O)[O-] (configuration not stated)
 : 108, nt, nt, nt, i, 1.1, 1
[47] COc1cccc(C2=CC(c3cc(OC)ccc3OC)n3nnnc3N2)c1 (configuration not stated)
 : 104, -15, 56, -0.2, nt, nt, -2
[48] C=CCn1c(CCNC(=O)c2cccs2)nnc1SCC(=O)Nc1cccc(F)c1
 : 102, -114, 17, -2.3, i, 1.1, 1
[49] COc1cccc2sc(NN)nc12
 : 95, nt, nt, nt, i, 1, -7
[50] C/C(=N\OC(=O)c1ccc(F)cc1)c1nccs1
 : 99, 29, 59, -1.8, i, 0.96, -6
[51] Nc1cc(C(=O)c2ccccc2)ccc1N1CCOCC1
 : 107, -338, 77, -1.4, i, 0.78, 1
[52] Cc1ccc(NCC(=O)c2ccc([N+](=O)[O-])cc2)cc1
 : 105, 57, 162, nt, i, 1.1, -1
[53] COc1cc(NC(C(=O)Nc2cccc(C(C)=O)c2)c2ccccc2)cc(OC)c1OC (configuration not stated)
 : 104, -3, 145, -1.0, i, 1, 7
[54] O=c1c2ccccc2n2cnnc2n1-c1ccccc1
 : 111, nt, nt, -2.1, i, 1, 6
[55] COC(=O)c1sc(NC(=O)c2ccco2)nc1C
 : 88, nt, nt, -1.5, i, 0.91, -7
[56] O=C(CSc1oc(-c2ccc(F)cc2)nc1S(=O)(=O)c1ccccc1)NCC1CCCO1 (configuration not stated)
 : 114, -33, 122, -2.5, i, 0.99, -3
[57] O=C(NCCc1csc(-c2cccnc2)n1)c1cccc2ccccc12
 : 108, nt, nt, -1.4, i, 0.73, -15
[58] O=C(COc1ccccc1C(=O)Nc1ccccc1)c1ccc(F)cc1
 : 34, nt, nt, nt, i, 0.95, 9
[59] COc1cc2c(cc1OC)C(c1ccccc1)=NCC2
 : 103, -13, 106, -1.3, i, 1, -16
[60] Cc1ccc(SCC(=O)n2nc(C)cc2C)cc1
 : 106, -15, 116, -1.4, i, 1, -4

Quoted from above: compounds 41–51
Each structure is followed by: RGS16-Gao, Insulin prom inh, Insulin prom inh cell count, GALR2 agonist, HSV augment, HSV augment primary fold, PKD1 kinase inh
[41] Cc1ccccc1NC(=O)c1ccccc1
 : 97, 38, 94, -2.1, i, 0.98, 1
[42] CCc1c(C)nc2ncnn2c1N1CCCC(C(=O)NCCc2ccccc2)C1 (configuration not stated)
 : 103, -4, 114, 1.9, i, 0.95, 4
[43] Cc1cc(C)cc(N(C(=O)c2csnn2)C(C(=O)NC(C)(C)C)c2cccs2)c1 (configuration not stated)
 : 101, -3, 99, -1.0, i, 0.94, -2
[44] O=C(CNc1cccc(C(F)(F)F)c1)N/N=C/c1cccc(Br)c1
 : 100, nt, nt, 1.5, i, 1, -1
[45] CC1CC(=O)Nc2ccccc2N1S(=O)(=O)c1ccc(Cl)cc1 (configuration not stated)
 : 113, nt, nt, nt, i, 1, nt
[46] Cc1nn(CC(=O)OCC(=O)NC(C)c2ccccc2)c(C)c1[N+](=O)[O-] (configuration not stated)
 : 108, nt, nt, nt, i, 1.1, 1
[47] COc1cccc(C2=CC(c3cc(OC)ccc3OC)n3nnnc3N2)c1 (configuration not stated)
 : 104, -15, 56, -0.2, nt, nt, -2
[48] C=CCn1c(CCNC(=O)c2cccs2)nnc1SCC(=O)Nc1cccc(F)c1
 : 102, -114, 17, -2.3, i, 1.1, 1
[49] COc1cccc2sc(NN)nc12
 : 95, nt, nt, nt, i, 1, -7
[50] C/C(=N\OC(=O)c1ccc(F)cc1)c1nccs1
 : 99, 29, 59, -1.8, i, 0.96, -6
[51] Nc1cc(C(=O)c2ccccc2)ccc1N1CCOCC1
 : 107, -338, 77, -1.4, i, 0.78, 1

(more compounds)
Each structure is followed by: RGS16-Gao, Insulin prom inh, Insulin prom inh cell count, GALR2 agonist, HSV augment, HSV augment primary fold, PKD1 kinase inh
[61] CC(C)(C)NS(=O)(=O)c1ccc(OCC(=O)NCc2ccco2)cc1
 : 95, nt, nt, nt, i, 0.99, -7
[62] COc1ccc(-n2c(CCc3ccccc3)nnc2SCC(=O)c2ccc(Cl)cc2)cc1
 : 108, nt, nt, 0.5, i, 0.94, 5
[63] CCn1c(=O)c([N+](=O)[O-])c(N2CCOCC2)c2ccccc21
 : 99, 16, 76, 0.3, i, 1, 1
[64] NC(=NCCc1c[nH]c2ccccc12)NS(=O)(=O)c1ccc(F)cc1
 : 126, nt, nt, -0.5, i, 0.98, 3
[65] Cc1occc1C(=O)Nc1c(F)cc(F)cc1Br
 : 108, -42, 44, -0.6, i, 0.95, 1
[66] O=C(C[n+]1cccc(CO)c1)Nc1nc2ccccc2s1
 : 104, 14, 129, nt, i, 0.92, -6
[67] COc1cccc(NC(=S)/C(=C(\[O-])c2ccc(C)c([N+](=O)[O-])c2)[n+]2ccccc2)c1
 : 98, 77*, 118*, -1.7, i, 0.89, -10
[68] O=C(O)c1ccccc1-c1ccccc1C(=O)Nc1cccc(Br)c1
 : 96, nt, nt, nt, i, 1, nt
[69] CCOC(=O)c1ccc(CNC(=O)C2CCCCC2C(=O)OCC(F)(F)F)o1 (configuration not stated)
 : 101, -7, 144, -2.1, i, 1, 7
[70] O=C1CCN1C1(C(=O)NC2CCCCC2)CCCC1
 : 35, -29, 100, -2.4, i, 1, 0
[71] Cc1cccc(NC(=O)C(c2cccc([N+](=O)[O-])c2)N2CCCCC2)c1 (configuration not stated)
 : 105, nt, nt, -0.7, i, 1.1, -8
[72] COc1ccc(C(C)NC(=O)c2ccc([N+](=O)[O-])cc2)cc1OC (configuration not stated)
 : 103, -16, 110, -0.2, i, 1, -10
[73] O=C(COc1ncnc2ccccc12)Nc1cccc(S(=O)(=O)N2CCOCC2)c1
 : 104, nt, nt, -0.2, i, 0.93, 2

Outcome played no part in choosing rows; about 1.3% have a hit in one of these screens.
